# High-throughput results: PubChem, several laboratories
# Calb FLC: C. albicans growth modulation with fluconazole. growth inhibition, % (concentration not given with the values). actives 0.57% (n = 300,000). C. albicans CaCi-2 (fluconazole-resistant clinical isolate) + fluconazole, Alamar Blue growth, 48 h;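 active = most replicates above 75%; inconclusive = exactly half above 75%; inactive = most below 75%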;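 also: all wells also contain fluconazole at 8 µg/ml as a sub-toxic cotreatment; 0% = median of DMSO wells and 100% = median of geldanamycin control wells; wells of about 8 µL received 7.5 nL stock; the first replicate is given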
# B2AR ag: agonists of human beta-2 adrenergic receptor inducing internalization; Am2.2-beta2AR cells, FAP receptor internalization, flow cytometry; reference of the scale not given here; AID 504454; actives 0.43% (n = 340,000); response, % (concentration not given with the values); P07550;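 active = response above a set limit, near 3 SD of response in nonfluorescent compounds, cut at about 42% in these data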;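 also: stock transfer was 100 nL into about 11 µL; a reference agonist was the positive control; negative values mostly stem from fluorescent compounds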
# Target sequence (P07550 whole entry, looked up): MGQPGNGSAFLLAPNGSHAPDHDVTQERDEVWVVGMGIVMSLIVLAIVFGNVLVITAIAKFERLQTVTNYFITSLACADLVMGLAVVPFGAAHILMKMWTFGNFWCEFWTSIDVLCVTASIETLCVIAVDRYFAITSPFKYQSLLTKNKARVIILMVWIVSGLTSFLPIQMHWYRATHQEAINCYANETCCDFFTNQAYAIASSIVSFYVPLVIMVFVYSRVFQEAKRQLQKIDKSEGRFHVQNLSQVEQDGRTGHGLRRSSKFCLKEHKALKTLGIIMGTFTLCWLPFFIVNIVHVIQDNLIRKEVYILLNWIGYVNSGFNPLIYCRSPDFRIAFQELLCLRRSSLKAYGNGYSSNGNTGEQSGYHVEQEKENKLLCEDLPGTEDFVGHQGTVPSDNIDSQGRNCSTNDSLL
# ALR inh: blocks human ALR sulfhydryl oxidase activity. P55789. purified ALR, DTT oxidation, H2O2 HRP-luminol luminescence. inhibition, % (concentration not given with the values). actives 3.8% (n = 290,000);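 active = mean and each replicate at 75% or more; inconclusive = only one of the two met; inactive = neither met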;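 also: stock transfer was 7.5 nL into about 7.5 µL; 0% = neutral wells and 100% = wells with inactivated enzyme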
# Target sequence (P55789 whole entry, looked up): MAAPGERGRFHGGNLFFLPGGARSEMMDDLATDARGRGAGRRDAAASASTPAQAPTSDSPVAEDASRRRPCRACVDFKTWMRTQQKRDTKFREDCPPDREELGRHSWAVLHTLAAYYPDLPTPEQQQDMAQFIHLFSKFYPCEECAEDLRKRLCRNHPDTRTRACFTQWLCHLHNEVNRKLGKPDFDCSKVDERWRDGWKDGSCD
# Beta apoptosis: blocks beta cell apoptosis. INS-1E cytokine-induced death, ATP luminescence, 48 h; percent of positive-control rescue, neutral wells zero. protection from apoptosis, % (no concentration beside the values). actives 0.8% (n = 300,000);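 active = all replicates at 75% or more, or half of them and the mean; inconclusive = half reach 75% but not the mean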;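 also: 0% = cytokine-treated negative control wells and 100% = positive control rescue; higher means more ATP so stronger rescue from cytokine killing; wells of about 40 µL received 100 nL stock; the first replicate is given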
# Bfl-1 A1 inh: inhibitors of the anti-apoptotic protein A1, read as caspase activation. actives 0.066% (n = 330,000). AID 2462. caspase activation, % (concentration not given with the values). MEF A1-2A-BIM cells, Caspase-Glo 3/7 luminescence, 3 h; percent of clofoctol response, vehicle zero;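 active = over half of replicate activation scores above 10%, or exactly half above 10 with the replicate mean above 10; inconclusive = replicate mean below 10 yet half the replicates above 10; inactive = over half of replicates below 10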;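 also: wells of about 30 µL received 50 nL stock; many hits fall short of the cut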
# LANA-H2B inh: blocks KSHV LANA binding to histone H2A/H2B; Q9QR71; inhibition, % (concentration not given with the values); AID 2629; cell-free LANA-H2A/H2B peptide, fluorescence polarization; actives 0.6% (n = 320,000); in the data active = inhibition mostly above about 10%, no sharp cut-off; inactive = mostly below about 6.7%;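 also: stock transfer was 7.5 nL into about 10 µL; 0% = median of vehicle wells and 100% = median of positive control wells; one replicate is shown; the record names a cut of 25% in any replicate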
# Ecoli rRNA inh: inhibits bacterial ribosomal RNA function over humanized ribosomes; actives 1.6% (n = 350,000); GFP signal change (wild-type ribosome), % (test concentration not listed); E. coli WT GFP vs humanized-ribosome RFP mutants, fluorescence, 24 h; active compounds read low; DMSO median 0, no signal -100;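 active = significant combined selectivity score with lowered wild-type GFP, culture density cut under 30%, mutant RFP and density less affected; inactive = any of these conditions unmet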; also: one replicate is shown; some compounds called inactive have numbers as strong as hits
# T cruzi inh: blocks replication of Trypanosoma cruzi | T. cruzi beta-gal in NIH3T3, luminescence, 90 h | inhibition, % (test concentration not listed) | actives 1.4% (n = 300,000);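 active = mean inhibition across valid replicates above about 55%, limit read from the data; inconclusive = mean below that limit but half or more replicates reach it; inactive = mean below it, under half of replicates reach it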;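 also: signal also drops with host cell toxicity which is not excluded here; 0% = plate median of DMSO wells and 100% = zero luminescence signal; higher percent means less beta-gal luminescence so fewer parasites; stock transfer was 50 nL into about 50 µL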
# Ecoli rRNA inh OD600: also measured in Ecoli rRNA inh; calls as there; OD600 change, %; measured here: OD600 growth;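 optical density of the mix in the first replicate; 0 = DMSO median and -100 = no signal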
# Ecoli rRNA inh RFP: recorded beside Ecoli rRNA inh, whose call it bears; RFP signal change, %; measured here: RFP humanized mutant strains;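 first replicate; 0 = DMSO median and -100 = no signal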
# Starred values were filed as active, the others as inactive; ? = inconclusive; nt = no result given.
nr	compound	ALR inh	Calb FLC	Bfl-1 A1 inh	T cruzi inh	Ecoli rRNA inh	Ecoli rRNA inh OD600	B2AR ag	Beta apoptosis	Ecoli rRNA inh RFP	LANA-H2B inh
1	CCN(C(=O)Cn1cc(C(F)(F)F)ccc1=O)c1c(N)n(Cc2ccccc2)c(=O)[nH]c1=O	8	2	0.1	-3	7	10	0	-2	0.2	2.9
2	CCCCn1c(CN2CCN(C)CC2)nc2ccccc21	-4	-1	-0.4	50	nt	nt	-2	-6	nt	0.0
3	NS(=O)(=O)c1ccc(N2CCOCC2)c(C(=O)NCCCSc2ccccc2)c1	nt	nt	1.0	nt	nt	nt	-1	0	nt	-2.5
4	COC(=O)C1=C(C)N(Cc2ccccc2)C(=NCc2cccc(C(F)(F)F)c2)N[C@H]1c1cccc(F)c1	-22	?	-0.7	45	-38	-67	37	111*	-5.2	3.6
5	CCCCc1ccc(-c2nc(-c3ccncc3)no2)cc1	2	1	-6.5	11	nt	nt	1	-2	nt	2.2
6	Clc1cccc(CNc2nc(-c3cccnc3)nc3ccccc23)c1	nt	-8	nt	63*	1	2	-13	nt	0.5	nt
7	NC(=O)c1ccc(Sc2nnc(-c3cccs3)n2CC2CCCO2)c([N+](=O)[O-])c1 (stereo unspecified)	8	-1	0.3	8	19	7	-16	-18	-6.8	1.2
8	CC(=O)Nc1nnc(SCc2cc(=O)c(OC(=O)c3ccccc3)co2)s1	-6	0	-0.2	-11	12	1	-1	-4	4.4	5.9
9	COc1cccc(C(=O)n2ccc(-c3cccs3)n2)c1	2	-9	0.2	-20	5	9	3	-12	-1.9	-1.7
10	O=C(Nc1ccncc1)c1c(F)cccc1F	-1	8	-0.1	11	nt	nt	9	-15	nt	0.4
11	Cc1c(CCC(=O)O)c(=O)oc2cc(OCc3ccccc3Br)ccc12	-12	14	-0.2	-15	-11	-6	38	-2	-4.6	1.2
12	COCc1cc(=O)n2[nH]c(C)nc2n1	-5	-4	-0.8	-5	nt	nt	1	0	nt	2.2
13	COc1cc(C(=O)O)ccc1OCc1ccncc1	-2	-10	-0.5	-3	1	6	0	-3	2.8	-2.7
14	Cc1ccc(C(C(=O)NC2CCCC2)N(C(=O)Cc2cccs2)c2ccc(C)c(C)c2)o1 (stereo unspecified)	3	nt	0.2	nt	nt	nt	7	4	nt	4.2
15	Cc1ccc(NC(=O)c2cnccn2)cc1	-17	-8	-0.5	1	1	5	3	2	1.0	-4.9
16	CC(=O)Nc1ccc(S(=O)(=O)NNc2ccc([N+](=O)[O-])cc2)cc1	98*	-26	-0.7	2	5	4	2	nt	0.4	-3.4
17	COc1cccc(NC(=O)COC(=O)c2ccc3ccccc3n2)c1	-2	nt	-1.3	nt	-7	-10	3	-5	5.5	2.3
18	CC(NC(=O)CCc1ccccc1)c1ccc2c(c1)OCO2 (stereo unspecified)	-2	-39	0.3	-9	3	2	-13	nt	2.2	0.7
19	CN(CC(=O)Nc1cccc(F)c1)C(=O)CCc1nc2ccccc2c(=O)[nH]1	-8	0	-0.4	-17	14	31	3	-7	3.6	0.6
20	COC(=O)c1cnc(NNS(=O)(=O)c2ccc(Cl)cc2)nc1C(F)(F)F	5	7	0.4	5	-11	-17	5	-6	1.9	-2.5
21	c1ccc(-c2ccccc2OCCCN2CCCCC2)cc1	-6	-1	0.8	11	nt	nt	3	-1	nt	-0.4
22	O=C(CCNC(=O)c1ccccc1Cl)NCC12CC3CC(CC(C3)C1)C2	17	-15	-1.1	6	nt	nt	-3	1	nt	-11
23	CN(C(=O)CSc1nnc2ccccn12)c1c(N)n(Cc2ccccc2)c(=O)[nH]c1=O	6	5	0.8	-9	nt	nt	-2	-1	nt	-1.2
24	CCOc1cc(C(=O)Nc2ccc(S(=O)(=O)NC3=NCCCCC3)cc2)cc(Br)c1OC	3	-2	0.6	-3	-17	-28	11	10	2.4	0.6
25	C/C(=N\Nc1c(F)c(F)c(Br)c(F)c1F)c1ccncc1	nt	9	-0.5	2	-5	-15	-5	5	-2.0	-0.9
26	COc1ccc(CNC(=O)C2CCN(S(=O)(=O)c3cccc4cccnc34)CC2)cc1	71	-7	0.0	-5	4	8	-14	0	0.2	2.0
27	N#Cc1c(NC(=O)CSc2nc3c(c(C(F)(F)F)n2)CCc2ccccc2-3)sc2c1CCCC2	-16	1	0.0	2	nt	nt	-3	-9	nt	0.1
28	CCCCN(C(=O)c1cc(-c2ccco2)nc2ccccc12)c1c(N)n(CCC)c(=O)[nH]c1=O	-3	nt	0.6	nt	10	13	-5	4	-1.3	nt
29	CCOC(=O)CN1C(=O)N[C@@H](c2ccccc2)[C@@H](C(=O)OC)[C@H]1C	-3	-4	3.0	-21	12	8	1	-5	8.4	3.3
30	O=C(c1ccccc1)C1CCN(c2ncccc2[N+](=O)[O-])CC1	-6	6	-0.2	-3	-26	21	13	-6	1.1	5.5
31	CC1(C)Cc2cccc(OCC(=O)Nc3cc(S(C)(=O)=O)ccc3Cl)c2O1	nt	nt	-0.3	nt	-8	12	4	-5	-2.0	-3.7
32	CC(C)CN1CCC(=O)N(CCSc2ccccc2)CC1	nt	-11	-1.0	-1	1	21	0	10	1.2	-0.7
33	Cc1c(C(=O)NCc2cccs2)oc2ccc(S(=O)(=O)N3CCOCC3)cc12	-11	3	-0.8	16	nt	nt	6	-6	nt	1.8
34	CC1=NN(c2ccc(S(=O)(=O)O)cc2C)C(=O)C1	nt	-5	0.4	-10	-13	-1	-6	-7	-0.9	-1.6
35	COc1ccc(-c2nn3c(=O)c(C)nnc3s2)cc1	2	3	-0.7	-10	7	4	5	-3	0.1	-0.5
36	CCN(CC)C(=O)Oc1ccc2ccccc2c1Cl	-43	0	-0.4	-6	-29	-32	10	8	5.9	0.2
37	COc1ccccc1OC(C)C(=O)Nc1ccc(S(=O)(=O)N2CCN(C)CC2)cc1 (stereo unspecified)	-1	0	0.6	-1	8	0	1	nt	1.8	5.0
38	COc1ccc(-c2noc(N3CCC(C(=O)NCCCN4CCCC(C)C4)CC3)n2)cc1 (stereo unspecified)	-5	2	0.8	3	-2	4	-3	-5	3.0	-2.0
39	CCc1ccccc1NC(=O)CN(C)C(=O)c1cc(C2CC2)nc2c1cnn2C(C)C	-4	nt	-1.4	nt	5	6	-4	-8	-0.9	0.9
40	CCc1ccc(C2c3[nH]c4ccccc4c3CCN2C(=O)CNC(N)=O)cc1 (stereo unspecified)	nt	29	0.5	-3	-34	-36	20	-10	-4.2	6.8
41	CS(=O)(=O)Nc1ccccc1C(=O)O	-14	2	-0.1	-13	nt	nt	9	1	nt	-1.3
42	COc1cccc(N(CC(=O)NCCSc2ccc(Cl)cc2)S(C)(=O)=O)c1	-3	1	-0.4	-2	-7	-3	1	-1	1.3	1.0
43	C=CCn1c(O)c(N=NC(=S)Nc2ccccc2F)c2cc(S(=O)(=O)N3CCOCC3)ccc21	-10	71	0.1	58*	-4	2	-3	28	-4.2	-1.6
44	O=C(NCc1ccccc1Cl)C(=O)NCC1OCCCN1S(=O)(=O)c1cccs1 (stereo unspecified)	-1	1	0.0	-6	-2	-5	4	nt	3.4	1.6
45	CC1=C(C)CC(C(=O)NCC(=O)c2ccccc2)C(C(=O)O)C1 (stereo unspecified)	-1	-1	0.2	-1	nt	nt	3	-1	nt	1.4
46	O=[N+]([O-])c1ccc(Cl)cc1N1CCCC1	-1	-9	1.5	-7	8	7	-5	nt	0.8	-11
47	Cc1c(Cl)cnc(NC(=O)COC(=O)c2ccc3ncsc3c2)c1Cl	-8	-20	0.7	-6	6	4	3	0	0.5	3.0
48	COc1ccc(C2C3=C(CC(C)(C)CC3=O)Oc3ncn4nc(-c5cccnc5)nc4c32)cc1 (stereo unspecified)	-54	?	0.2	16	8	8	-3	-9	0.0	4.9
49	Cc1ccc(C(=O)N2CCN(S(=O)(=O)c3ccccc3)CC2)s1	nt	-4	-0.9	7	3	-1	4	-3	2.6	1.2
50	O=[N+]([O-])c1ccc(Cl)c(/C=N/n2c(C3CCCCC3)n[nH]c2=S)c1	99*	-21	-0.5	-11	nt	nt	-12	-9	nt	2.8
51	CCCc1ccc2c(N)c(C#N)sc2n1	6	17	0.0	-4	5	2	-18	-12	-2.9	1.4
52	CCN(CC)c1ccc(C(=O)NNC(=O)CCNC(=O)c2ccccc2)cc1	15	nt	-0.5	nt	2	1	1	-3	-0.1	1.3
53	CCOC(=O)N1CCN(C(=O)CN(c2cc(Cl)ccc2OC)S(=O)(=O)c2ccccc2)CC1	-18	-2	-0.3	13	nt	nt	-2	4	nt	-4.2
54	O=C(NCC(c1ccco1)N1CCc2ccccc21)c1ccc([N+](=O)[O-])cc1 (stereo unspecified)	24	11	-0.5	17	3	4	3	9	-1.0	-3.2
55	CC(C)C(OC(=O)c1ccco1)C(=O)NCc1ccc2c(c1)OCO2 (stereo unspecified)	1	1	-0.3	0	16	14	13	1	5.2	0.6
56	Cc1ccc(SCC(=O)Nc2cccc(-c3nnc(-c4ccco4)o3)c2)cc1	9	2	-2.1	6	nt	nt	2	-3	nt	-1.2

# This is a subset (hit frequency here may not be typical).
